From PubChem BioAssay
PABP polyA inh: blocks human PABP binding to poly(A) RNA | fluorescence polarization | inhibition, % at 35 µM | hit rate 1% among 290,000;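 active = 50% or more with normal probe brightness, or confirmed in later tests; about a fifth of its hits are not listed in these tables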;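 also: calls also rest on retests at 20 µM and on dose response follow-up; controls were probe without protein and protein plus probe with vehicle; some compounds called inactive have numbers as strong as hits; many hits fall short of the cut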
Target sequence (P11940 whole entry, looked up): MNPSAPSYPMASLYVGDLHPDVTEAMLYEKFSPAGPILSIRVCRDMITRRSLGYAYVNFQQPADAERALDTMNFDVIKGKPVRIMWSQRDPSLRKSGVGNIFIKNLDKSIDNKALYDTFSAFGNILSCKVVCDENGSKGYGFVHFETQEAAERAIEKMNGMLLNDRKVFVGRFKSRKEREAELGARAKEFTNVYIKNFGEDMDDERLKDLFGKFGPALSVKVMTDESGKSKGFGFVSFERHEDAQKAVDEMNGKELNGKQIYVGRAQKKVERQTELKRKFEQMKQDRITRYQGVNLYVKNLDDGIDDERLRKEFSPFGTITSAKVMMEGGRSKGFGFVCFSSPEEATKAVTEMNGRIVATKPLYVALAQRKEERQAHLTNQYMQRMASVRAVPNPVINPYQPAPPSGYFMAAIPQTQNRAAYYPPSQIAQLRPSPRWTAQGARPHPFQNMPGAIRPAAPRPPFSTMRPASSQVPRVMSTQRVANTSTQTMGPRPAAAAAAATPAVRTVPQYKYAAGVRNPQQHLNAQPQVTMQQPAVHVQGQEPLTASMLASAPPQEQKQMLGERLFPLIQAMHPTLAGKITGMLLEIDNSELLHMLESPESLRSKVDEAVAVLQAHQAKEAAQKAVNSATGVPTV
Yeast UUG start: modulators of start codon recognition fidelity in yeast. activity score, % at 18.7 µM. hit rate 0.13% among 350,000. S. cerevisiae UUG-firefly luciferase reporter, luminescence/redox ratio;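 active = replicate mean at a twofold rise or more, about +100% in these data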;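 also: firefly luciferase made from a UUG start codon reports start codon fidelity; reporter light over untreated wells divided by growth signal over untreated wells; some hits fall short of that in this replicate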
eIF4H FP inh: inhibitors of RNA binding by human eIF4H | Q15056 | eIF4H fluorescence polarization binding assay | inhibition, % at 35 µM | hit rate 0.94% among 290,000 | AID 2012;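 active = 50% or more with normal probe brightness, or confirmed in later tests; about a fifth of its hits are not listed in these tables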;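 also: calls also rest on retests at 20 µM and on dose response follow-up; 0% = protein and probe with vehicle and 100% = probe without protein; strong numbers were not always called active; many hits fall short of the cut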
Env fusion inh: HIV envelope-mediated fusion inhibition | inhibition, % at 12.3 µM | hit rate 1.1% among 360,000 | HeLa-JRFL Env/CEM21 cell fusion, luciferase;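 active = mean replicate inhibition score of at least 50 and every replicate individually at or above 50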;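 also: 0% = plate neutral controls and 100% = maraviroc near 300 nM; one replicate is shown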
CSC inhib: blocks cancer stem cells. cancer stem cell-like cells viability, luminescence. inhibition, % at 7.5 µM. hit rate 1.1% among 300,000. AID 2717;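 active = mean at 75% or more and at least half the replicates too; tested in HMLE shEcad cells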;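 also: 0% = median of negative and 100% = median of positive control wells; the first replicate is given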
MT1-MMP act inh: blocks activation of human MT1-MMP; P50281; HT1080 RFP-PRO-GFP cells, GFP/RFP ratio fluorescence, overnight; percent of plate control window, DMSO zero; GFP/RFP ratio change, % at 20 µM; hit rate 0.061% among 360,000; AID 651647;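 active = GFP/RFP ratio change of at least 30% with cell ATP level not reduced by more than half and red fluorescence within 50% of control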; also: strong numbers were not always called active
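Assay system: HT1080 RFP-PRO-GFP cells | Dosing: 20 µM single dose, 1% DMSO | Incubation: Cells overnight before dosing, compound overnight, 37 °C, 5% CO2 | Evaluation: GFP/RFP fluorescence ratio | Control set: DMSO-only wells and HT1080 RFP-L50D-GFP cell wells as references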
Rce1 inhib: blocks yeast Ras-converting enzyme. calls only. AID 2563. hit rate 0.27% among 290,000. yeast membranes, quenched prenylated peptide cleavage fluorescence;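 active = fall in fluorescence gain of 50% or more versus controls, with final raw signal at or below 3038400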;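 also: plate controls were neutral control wells for no effect and wells lacking membranes for full effect; tested at 10 µM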
Target sequence (Q03530 whole entry, looked up): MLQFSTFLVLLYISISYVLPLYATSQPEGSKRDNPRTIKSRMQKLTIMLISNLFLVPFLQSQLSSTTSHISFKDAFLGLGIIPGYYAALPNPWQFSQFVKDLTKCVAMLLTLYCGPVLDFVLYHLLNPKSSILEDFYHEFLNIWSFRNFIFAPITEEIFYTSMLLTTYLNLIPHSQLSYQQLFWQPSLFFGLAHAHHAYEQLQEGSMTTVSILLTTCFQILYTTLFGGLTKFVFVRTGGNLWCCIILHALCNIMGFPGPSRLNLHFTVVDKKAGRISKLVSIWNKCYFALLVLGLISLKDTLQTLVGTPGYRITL
eIF4H FP inh retest: also measured in eIF4H FP inh; calls as there; inhibition, %; compound at 20 µM; confirmation average;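 mean of two retest wells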
PABP polyA inh retest: also measured in PABP polyA inh; calls as there; inhibition, %; compound at 20 µM; confirmation repeats;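 mean of two retest wells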
MT1-MMP act inh RFP: further read-out of MT1-MMP act inh, marked with its call; RFP signal change, %; measured here: RFP expression control read;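 0 = vehicle wells; hits needed this value within 50% of zero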
Numbers without * were called inactive; i = inactive; nt = no result given; + = active, no number.

SMILES	PABP polyA inh	Yeast UUG start	eIF4H FP inh	Env fusion inh	CSC inhib	MT1-MMP act inh	MT1-MMP act inh RFP	Rce1 inhib	others
O=C(CCN1CCOCC1)N1c2ccccc2Sc2ccc(Cl)cc21	14	-9	-3	19	4	-2	1	i
O=c1c2sccc2nc(SCc2cc(=O)n3cc(Cl)ccc3n2)n1-c1ccc(F)cc1	7	-3	-1	nt	9	-6	-10	i
Cc1cccn2c(=O)c3cc(S(=O)(=O)c4ccccc4)c(=N)n(Cc4ccc(F)cc4)c3nc12	3	-18	7	1	-7	-26	-6	i
Cc1cc(C)nc(NS(=O)(=O)c2ccccc2)n1	-7	nt	7	nt	-7	5	0	i
c1ccc(OCc2nc(-c3ccncc3)no2)cc1	-8	-5	-1	-20	-4	3	1	i
COC(=O)c1cc(OC)c(OC)cc1NCC(=O)Nc1ccc(OC)c(OC)c1	-6	nt	-6	37	-11	5	1	i
O=C(Nc1ccccn1)c1ccc(S(=O)(=O)N2CCCC2)cc1	nt	nt	nt	-1	-4	1	-3	i
O=C(c1ccc(CS(=O)Cc2ccc(Cl)cc2)o1)N1CCN(c2ccccc2F)CC1 (stereo not given)	7	4	-4	-6	-7	4	-1	i
CCOc1ccccc1C1NC(=O)c2ccccc2O1 (stereo not given)	-6	-15	-4	-18	-7	-3	0	i
CSCCC(NC(N)=O)C(=O)Nc1cccc(C#N)c1 (stereo not given)	-12	nt	53*	-6	nt	-7	-4	i	eIF4H FP inh retest=54*;PABP polyA inh retest=3
CCc1nnc(NC(=O)CCC(=O)N2CCN(Cc3ccc(C)cc3C)CC2)s1	nt	-1	nt	9	5	4	1	i
CCc1ccc(OCc2n[nH]c(=S)n2Cc2ccccc2)cc1	-8	-22	-3	3	2	5	-3	i
CCC(C)NS(=O)(=O)c1ccc(NC(=O)c2c(-c3ccccc3)noc2C)cc1 (stereo not given)	0	-15	3	-3	1	-3	-6	i
C#Cc1ccc(CN2CCC(Oc3ccc(C(=O)NCc4ccccn4)cc3)CC2)cc1	-4	-18	-7	nt	-5	4	-3	i
Cc1[nH]c(C)c(S(=O)(=O)Nc2ccc(F)cc2Cl)c1C(=O)N1CCCC1	-2	-13	1	-5	1	5	0	i
CCOc1cc(CNCCCN2CCOCC2)cc(Br)c1OCC(=O)Nc1cccc(C(F)(F)F)c1	-6	-14	-5	nt	14	8	-6	i
COc1ccc(-c2[nH]ncc2CN2CCCOc3c(cccc3OC)C2)c(OC)c1	7	-6	-6	2	9	-9	-4	i
Cc1nc2sc(C(c3ccc(F)cc3)N3CCN(C(=O)c4ccco4)CC3)c(O)n2n1 (stereo not given)	2	-9	-1	-17	0	0	0	i
Cc1cccc(C)c1NC(=O)[C@@]1(CC(=O)O)CC(/C=C/c2ccccc2)=NO1	-11	-6	-19	-2	8	-3	-1	i
Cc1c(NC(=O)C(C)Oc2cccc(Cl)c2)c(=O)n(-c2ccccc2)n1C (stereo not given)	nt	-4	nt	2	9	-4	-2	i
CC(C)c1nnc(NC(=O)CCC(=O)NC2CCCCCC2)s1	nt	-16	nt	-5	-3	4	9	i
COc1ccc(/C=C2/C(=O)N=C(N)N2C)cc1OC	12	-30	40	nt	0	-15	6	i
O=C(NCCNC(=O)c1ccccc1)c1ccccc1	17	-5	-5	-1	-6	7	5	i
CCCn1nc2cc(C(=O)NCc3ccccc3)ccc2c1OCC	3	-17	2	-21	7	5	3	i
CCc1ccc(-c2nc(C(N)=O)c3[nH]c(=O)n(-c4ccccc4OC)c3n2)cc1	4	3	-8	-65	59	1	-4	i
Continuation.
SMILES	PABP polyA inh	Yeast UUG start	eIF4H FP inh	Env fusion inh	CSC inhib	MT1-MMP act inh	MT1-MMP act inh RFP	Rce1 inhib	others
Cc1csc(=S)n1-c1ccccc1	7	-15	-5	nt	-5	2	4	i
N#CC(CC(=O)OCc1ccccc1)NC(=O)OCc1ccccc1 (stereo not given)	nt	-9	nt	11	nt	1	3	nt
O=C(NCC1CCCO1)c1cccc(S(=O)(=O)Nc2ccc(F)cc2)c1 (stereo not given)	nt	-12	nt	1	nt	1	-3	nt
O=C(O/N=C(\c1ccccc1)c1ccccn1)c1ccc(Cl)c(Cl)c1	8	nt	-12	-17	-5	-2	-5	i
O=c1oc2ccccc2c(=O)c2ccccc12	nt	-15	nt	-14	nt	0	10	nt
COc1ccc2cc(C#N)c(Nc3cccc(F)c3)nc2c1	4	nt	3	-10	-14	2	1	i
CN(C(=O)COC(=O)CNC(=O)c1ccccc1Cl)c1ccccc1	12	nt	-4	0	0	4	9	i
CCC(C)(C)NC(=O)/C=C/c1cnc2ccccc2n1	2	nt	8	-5	-11	3	9	i
O=c1c(Cl)c(NCCO)ncn1-c1ccccc1	0	1	7	-25	-8	4	8	i
Cc1ccc2c(CN3C(=O)NC4(CCCCC4)C3=O)cc(=O)oc2c1C	-5	-18	-10	2	-11	-3	1	i
CCN1/C(=C2/SC(=S)N(NC(C)=O)C2=O)Sc2ccccc21	10	-12	0	-3	4	-12	-2	i
Cc1nn(CC(=O)NC2CCS(=O)(=O)C2)c(C)c1[N+](=O)[O-] (stereo not given)	nt	-3	nt	-2	-14	-1	1	nt
COc1ccccc1C(=O)N(Cc1nc(-c2ccc(Cl)cc2)no1)C(C)C	-4	1	-12	36	-8	1	-14	i
Cc1ccc(C(=O)Nc2ccccc2N2CCCCC2)cc1	-5	-7	-6	46	nt	-4	-1	i
NS(=O)(=O)c1ccc(CNc2ncnc3sccc23)cc1	10	-8	9	-8	-13	1	-5	i
CC(OC(=O)c1cc[n+]([O-])cc1)C(=O)Nc1ccc(Cl)cn1 (stereo not given)	-6	-19	11	nt	-1	7	4	i
CCOc1ccccc1C1CC(c2cccs2)=NN1S(C)(=O)=O (stereo not given)	-6	nt	4	-7	-2	-36	1	i
CCOC(=O)C1=C(N)Oc2cc(O)ccc2C1c1cccc(Cl)c1 (stereo not given)	0	-7	-6	8	82*	-8	-17	i
Cc1ccccc1OCC(=O)N/N=C/c1c(C)nn(-c2ccccc2)c1Cl	19	nt	72	-21	-8	2	4	i	eIF4H FP inh retest=-1;PABP polyA inh retest=12
Cc1cc(C(=O)NNC(=O)C(C)NS(=O)(=O)c2ccccc2F)c(C)o1 (stereo not given)	nt	-19	nt	nt	-17	0	0	nt
Cc1cc(O)ccc1Nc1nc(-c2cccnc2)cs1	-2	-7	3	-21	nt	3	-9	i
O=C(NCCC1=CCCCC1)C1CCN(c2nnc(-n3cccc3)s2)CC1	8	-24	-7	12	-18	0	-3	i
CCOC(=O)C1=C[C@@H](C(C)(C)C)N(S(=O)(=O)c2ccc(OC)cc2)[C@H]1c1ccccc1	nt	-14	nt	63*	nt	-7	-21	nt
COc1cc2sc(C)nc2cc1C	-1	nt	-3	-6	4	-5	1	i
O=c1[nH]c(SCc2ccccc2)nc2c1sc1ccccc12	-2	nt	12	-10	-16	-2	4	i

Structures listed so far that contain an aryl thioether with sulfur outside any ring (2):
SMILES	PABP polyA inh	Yeast UUG start	eIF4H FP inh	Env fusion inh	CSC inhib	MT1-MMP act inh	MT1-MMP act inh RFP	Rce1 inhib	others
O=c1c2sccc2nc(SCc2cc(=O)n3cc(Cl)ccc3n2)n1-c1ccc(F)cc1	7	-3	-1	nt	9	-6	-10	i
O=c1[nH]c(SCc2ccccc2)nc2c1sc1ccccc12	-2	nt	12	-10	-16	-2	4	i

The results go on:
SMILES	PABP polyA inh	Yeast UUG start	eIF4H FP inh	Env fusion inh	CSC inhib	MT1-MMP act inh	MT1-MMP act inh RFP	Rce1 inhib	others
O=C(CCNC(=O)c1ccccc1Cl)Nc1ccc2c(c1)OCCO2	nt	-15	nt	-2	nt	-1	5	nt
CC1CCCCN1C(=O)CSc1nc(C2CC2)nc2c1cnn2-c1ccccc1 (stereo not given)	5	3	-7	0	nt	-24	-18	i
CC(=O)Nc1ccc(S(=O)(=O)N(C)CC(=O)OCC(=O)Nc2cccnc2Cl)cc1	-4	nt	8	-14	-5	1	3	i
N#Cc1cc([N+](=O)[O-])ccc1Oc1ccc(-c2nnco2)cc1	1	5	0	4	3	3	-2	i
O=C(NNC(=O)c1ccccc1[N+](=O)[O-])c1ccc(NS(=O)(=O)c2cccs2)cc1	6	-11	-7	-3	-4	1	1	i
CC(=O)Nc1ccc(NC(=O)C2CC(=O)N(c3ccccc3Cl)C2)cc1 (stereo not given)	-5	4	0	-9	-1	4	4	i
CC(=O)/C(=N\Nc1ccccc1)Oc1ccc([N+](=O)[O-])cc1	-9	-4	-7	-36	-10	3	0	i
COCCOC(=O)C1=C(N)Oc2c(oc(CO)cc2=O)C1c1c(F)cccc1Cl (stereo not given)	-6	-21	-1	12	nt	0	2	i
N#C/C(=C\c1cccnc1)c1ccccn1	-7	-14	1	-8	3	1	2	i
O=C(Nc1ccc(Cl)cc1Cl)c1cc2ccccc2o1	-2	-25	1	i	-6	-3	-1	i
Cc1ccc2c(c1)C(c1ccccc1)N(C(=O)C(C)C)CC(=O)N2 (stereo not given)	-3	-4	-7	-6	nt	1	0	i
Cc1ccc(NC(=O)N2CCc3ccccc32)cc1	1	-73	-5	i	0	0	4	i
CCOC(=O)C(C)n1cnc2c(nnn2-c2ccc(OC)cc2)c1=O (stereo not given)	-10	-25	5	-12	-9	0	-3	i
CCC(=O)Nc1ccc(NC(=O)c2ccccc2Cl)nc1	0	-10	2	nt	-11	1	4	i
CN(C)CCNC(=O)C(=O)NCC1OCCCN1S(=O)(=O)c1cccs1 (stereo not given)	-10	nt	6	1	-14	3	9	i
CCn1c(=O)c2c3c(sc2n2c(=S)[nH]nc12)CCC3	8	nt	-10	nt	-10	-3	2	i
Cc1cc2ncn(S(=O)(=O)c3ccc(F)cc3)c2cc1C	-5	10	0	6	-4	-1	-2	i
CC(=O)Nc1ccc(SCC(=O)Nc2sccc2C#N)cc1	-8	nt	0	-15	nt	-4	-1	i
COCCCn1c(-c2ccc(OC)cc2)nc2c1c(=O)[nH]c(=O)n2Cc1ccccc1	-4	6	-7	12	0	6	-3	i
Cc1ccc(CNC(=O)c2ccc(S(=O)(=O)Nc3c(C)n(C)n(-c4ccccc4)c3=O)cc2)cc1	4	-15	-4	31	-11	4	-1	i
COC(=O)c1ccc(-c2nc(CN3CCN(C(=O)c4ccco4)CC3)c(C)o2)cc1	nt	-1	nt	-37	nt	-1	-2	nt
COc1cccc(N2CCN(C(=O)c3cc4c(OC)c(OC)c(OC)cc4[nH]3)CC2)c1	2	-3	-3	-2	-8	6	3	i
Cc1ccc(-c2nc(CS(=O)(=O)CC(=O)NC3CCC(C)CC3)c(C)o2)cc1 (stereo not given)	10	-7	3	4	16	1	-4	i
Cc1ccc(NC(=O)CN(C)C(=O)Nc2ccc(C)cc2)cc1	-7	-15	-22	0	-5	1	3	nt
Nc1ccc2nc(-c3ccccc3)[nH]c2c1	0	-27	-4	-90	7	11	0	+
COc1cccc2c1C(=O)CC2NC(=O)C(F)(F)F (stereo not given)	2	-7	7	-31	-7	-5	0	i
NC(=O)c1c(-c2cccs2)csc1N	112	nt	93	nt	nt	nt	nt	i	eIF4H FP inh retest=2;PABP polyA inh retest=5
O=C(COc1ccccc1)Nc1cccc(-c2nn[nH]n2)c1	5	-16	-4	-15	16	0	4	i
O=[N+]([O-])c1cc(-c2ccccc2)cc([N+](=O)[O-])c1O	nt	2	nt	2	nt	13	-4	nt
CCOC(=O)c1c(C)oc(/N=C/c2ccccc2O)c1C#N	-5	-25	-3	nt	0	2	2	i

At a glance, some entries already given:
SMILES	PABP polyA inh	Yeast UUG start	eIF4H FP inh	Env fusion inh	CSC inhib	MT1-MMP act inh	MT1-MMP act inh RFP	Rce1 inhib	others
O=C(COc1ccccc1)Nc1cccc(-c2nn[nH]n2)c1	5	-16	-4	-15	16	0	4	i
O=[N+]([O-])c1cc(-c2ccccc2)cc([N+](=O)[O-])c1O	nt	2	nt	2	nt	13	-4	nt
CCOC(=O)c1c(C)oc(/N=C/c2ccccc2O)c1C#N	-5	-25	-3	nt	0	2	2	i
